Tgondii IFNg: T. gondii growth inhibition under IFN-gamma. Toxoplasma gondii growth in IFN-gamma-treated host cells; active compounds read low; reference of the scale not given here. activity change, negative = inhibition, %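 (about 20 µM by stock and volumes)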. 69,000 tested, 3.8% active;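 active = below -70%; inconclusive = fit judged invalid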;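 also: host cells are HeLa cells infected with Toxoplasma gondii; parasite growth read as luciferase light; one replicate is shown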
Starred values were filed as active, the others as inactive; i = inactive; ? = inconclusive. Some of the compounds tested; rates above refer to the full screens.

SMILES | Tgondii IFNg
C[C@H]1CN2C[C@H](O)CC2CN1Cc1cccn1-c1ccc(F)cc1 (stereo partly specified) | 51
Cc1cc(N2CCCCC2)n2nc(CN3CCC(N4CCCCC4)CC3)nc2n1 | -20
COc1cccc(-c2nc(-c3cc(C(=O)N4CCC(N(C)C)C4)c4ccccn34)cs2)c1 (stereo unspecified) | -1
COc1cccc(NC(=O)N[C@H]2CC[C@@H](CC(=O)N3CCN(C)CC3)O[C@@H]2CO)c1 | -32
Cc1ccc(S(=O)(=O)N2CCC3(CC2)Nc2cc(C)ccc2-n2cccc23)cc1 | 3
CCC(=O)N1CCC(C)(C(=O)NCc2cc(OC)cc(OC)c2)CC1 | 20
Cc1nc(-c2ccccn2)nc(N2CCN(CCO)CC2)c1Cl | -14
N#Cc1ccc2c(c1)CN(C(=O)c1cccnc1)C2c1cnco1 (stereo unspecified) | 5
Cc1ccc2c(c1)oc(=O)n2CCNC(=O)CC1(C)C(=O)N=C2C=CC=CN21 (stereo unspecified) | 0
CS(=O)(=O)N1CCOCC1c1csc(-c2ccccc2)n1 (stereo unspecified) | 0
O=C(C[C@@H]1C=C[C@H](NC(=O)Nc2cccc(F)c2)[C@@H](CO)O1)NCC1CCCCC1 | 26
CCCC(=O)N1CCc2c([nH]c3ccccc23)C1c1ccc(SC)cc1 (stereo unspecified) | -24
CN1C(=O)c2cc(NC(=O)Cc3cccs3)ccc2OC[C@H]2O[C@H](CC(=O)NCC3CCCCC3)CC[C@@H]21 | 1
CCc1nc(C)sc1C(=O)N(C)Cc1noc(C2CCC2)n1 | 4
CC1(C)Cc2ccccc2CN1C(=O)c1cn(CC2CCCNC2)nn1 (stereo unspecified) | 2
Cc1cc2nc(C3CCCN3C(=O)c3cccc(-n4cnnn4)c3)[nH]c2cc1C (stereo unspecified) | 14
CSc1nsc(SCC(=O)NCc2ccc3c(c2)OCO3)n1 | 4
COc1ccccc1OCC(=O)NCCc1sc(-c2cccc(F)c2)nc1C | 145
Cc1occc1C(=O)N1CCC2(CC(Nc3cccc(C#N)n3)CO2)C1 (stereo unspecified) | -98*
Cc1ccc(S(=O)(=O)N2C[C@@H]3[C@H](c4ccccc42)[C@@H](CO)N3Cc2cccnc2)cc1 | -9
Cc1cc(OC(=O)CNC(=O)OC(C)(C)C)c2c(C)cc(=O)oc2c1 | 12
Cc1noc(C)c1S(=O)(=O)NCC(=O)N1CCCN(Cc2ccccn2)CC1 | 1
COc1cccc(C(=O)NCCc2sc(-c3ccc(OC)c(OC)c3)nc2C)c1 | i
CCS(=O)(=O)Nc1ccc2c(c1)C(=O)N(C)[C@@H]1CC[C@H](CC(=O)N3CCN(C)CC3)O[C@H]1CO2 | -14
CCc1nc(Cn2ccnc2-c2cccc3nonc23)no1 | 7
O=C(NCc1cnc2n1CCN(C(=O)c1ccsc1)C2)C1CC1 | 20
Cc1ccc(CN2Cc3ccnn3CC(COCC3CC3)C2)s1 (stereo unspecified) | -8
CCCNC(=O)c1cc(-c2cnc(NCc3ccccc3)nc2)cn1C | -82*
COc1ccc(Nc2nc(-c3nnc(-c4cccc(Cl)c4)o3)nc3ccccc23)cc1OC | i
O=C(CN1CCOc2ccccc2C1)N1Cc2cnn(CCO)c2C1 | 110
Cc1csc([C@H]2Cc3ccsc3[C@@H](C(C)c3ccccc3)N2)n1 (stereo partly specified) | 29
CC(C)C(=O)c1ccc2nnc(C3CCN(Cc4ccccc4)C3)n2c1 (stereo unspecified) | -4
O=C(NC1CC1)C1CN(Cc2cnc(NCc3ccccc3)nc2)CCN1 (stereo unspecified) | -1
CCOc1ccc(CN(C(=O)c2ccc(C3CCCO3)s2)C2CC2)cc1 (stereo unspecified) | 57
COc1ccc([C@@H]2C/C=C\C[C@H](C(C)C)NC(=O)CCC(=O)N2)c(OC)c1 | 41
CC12CCC(C(=O)N(CNc3ccc4c(c3)oc3ccccc34)C1=O)C2(C)C (stereo unspecified) | 147
COc1ccc(-c2noc(CSc3nc(C)cc(=O)[nH]3)n2)cc1OC | 33
Cc1nc(-c2ccc(F)cc2)sc1CCNC(=O)c1ccc(F)c(F)c1 | -42
O=C(c1cccc(C(F)(F)F)c1)N1CCn2cnc(COc3cccnc3)c2C1 | -11
CCn1cnnc1CCNS(=O)(=O)NCc1ccccc1 | 12

Laid out differently: 19 of the compounds above.
canonical_smiles	Tgondii IFNg
Cc1occc1C(=O)N1CCC2(CC(Nc3cccc(C#N)n3)CO2)C1 (stereo unspecified)	-98*
Cc1ccc(S(=O)(=O)N2C[C@@H]3[C@H](c4ccccc42)[C@@H](CO)N3Cc2cccnc2)cc1	-9
Cc1cc(OC(=O)CNC(=O)OC(C)(C)C)c2c(C)cc(=O)oc2c1	12
Cc1noc(C)c1S(=O)(=O)NCC(=O)N1CCCN(Cc2ccccn2)CC1	1
COc1cccc(C(=O)NCCc2sc(-c3ccc(OC)c(OC)c3)nc2C)c1	i
CCS(=O)(=O)Nc1ccc2c(c1)C(=O)N(C)[C@@H]1CC[C@H](CC(=O)N3CCN(C)CC3)O[C@H]1CO2	-14
CCc1nc(Cn2ccnc2-c2cccc3nonc23)no1	7
O=C(NCc1cnc2n1CCN(C(=O)c1ccsc1)C2)C1CC1	20
Cc1ccc(CN2Cc3ccnn3CC(COCC3CC3)C2)s1 (stereo unspecified)	-8
CCCNC(=O)c1cc(-c2cnc(NCc3ccccc3)nc2)cn1C	-82*
COc1ccc(Nc2nc(-c3nnc(-c4cccc(Cl)c4)o3)nc3ccccc23)cc1OC	i
O=C(CN1CCOc2ccccc2C1)N1Cc2cnn(CCO)c2C1	110
Cc1csc([C@H]2Cc3ccsc3[C@@H](C(C)c3ccccc3)N2)n1 (stereo partly specified)	29
CC(C)C(=O)c1ccc2nnc(C3CCN(Cc4ccccc4)C3)n2c1 (stereo unspecified)	-4
O=C(NC1CC1)C1CN(Cc2cnc(NCc3ccccc3)nc2)CCN1 (stereo unspecified)	-1
CCOc1ccc(CN(C(=O)c2ccc(C3CCCO3)s2)C2CC2)cc1 (stereo unspecified)	57
COc1ccc([C@@H]2C/C=C\C[C@H](C(C)C)NC(=O)CCC(=O)N2)c(OC)c1	41
CC12CCC(C(=O)N(CNc3ccc4c(c3)oc3ccccc34)C1=O)C2(C)C (stereo unspecified)	147
COc1ccc(-c2noc(CSc3nc(C)cc(=O)[nH]3)n2)cc1OC	33

(cont.)
SMILES | Tgondii IFNg
Cc1ccccc1N1CCCN(Cc2cnc(N3CCCC3)s2)CC1 | 14
Cc1ccc2oc(-c3cccs3)nc2c1 | 146
Cc1cc(C)nc(CN(C)C(=O)c2coc(COc3cccc(F)c3F)n2)c1 | 4
CNC(=O)C(C)N(C)Cc1nc2ccccc2n1CC(C)C (stereo unspecified) | 33
O=C(c1ccc2ccccc2n1)N1CCC(O)(CN2CCCCC2c2cccnc2)CC1 (stereo unspecified) | 11
CC(C)N(C(=O)CN1CCN(c2ccccc2)CC1)C(C)C | -37
CN(C)CC(=O)N[C@@H]1C=C[C@H](CC(=O)NCc2ccc(Cl)cc2)O[C@H]1CO | -48
COc1ccc(C(=O)CSc2nc3nc(C)cc(C)c3c(=O)[nH]2)cc1OC | 8
CNC[C@H]1Oc2c(NS(=O)(=O)c3ccc(Cl)cc3)cccc2C(=O)N([C@H](C)CO)C[C@@H]1C | -15
CN1c2ccc(C3=CCCCC3)cc2[C@@H]2[C@@H](CCN2C(=O)c2ccccc2F)[C@@H]1CO | -76*
Cc1oc(-c2ccc(C(=O)N(C)Cc3ccco3)cc2)nc1CN1CCc2ccccc21 | 10
CN(C)Cc1ccc(C2CCCN2C(=O)Cc2ccccn2)cc1 (stereo unspecified) | 3
CC(C)(C)c1nn(-c2ccccc2)c2nc3c(cc12)CN(c1ccccc1)C(=O)O3 | -22
COCC1CN(C(=O)COc2ccccc2C)Cc2cncn2C1 (stereo unspecified) | -8
Cc1cc(C(=O)N(C)CCCc2cnn(C)c2)n[nH]1 | -7
CN1C(=O)c2cc(NC(=O)Nc3ccccc3Cl)ccc2OC[C@@H]2O[C@H](CC(=O)NCCCN3CCOCC3)CC[C@@H]21 | 5
c1ccc(Cn2c3ccccc3c3ccccc32)cc1 | -16
COc1c(F)cc(-c2c(-c3ccccc3)ncn2CCNC(C)=O)cc1F | -54
CCOc1ncnc2c1[nH]c1ccccc12 | 17
CCN1C[C@H]2COC[C@H](CC(=O)NCc3ccco3)[C@H]2C1 | -41
CCCN(C)C[C@H]1Oc2cc(/C=C/c3ccccc3)ccc2S(=O)(=O)N([C@H](C)CO)C[C@@H]1C | -18
CO[C@@H]1CN(C)C(=O)c2cccc(C#N)c2OCC[C@@H]2CC[C@@H](OC)[C@@H](CN(C)C(=O)[C@H]1C)O2 | -38
NC(=O)C(NC(=O)Cn1c(=O)cc(C(=O)N2CCc3ccccc3C2)c2ccccc21)c1ccccc1 (stereo unspecified) | 20
C[C@@H]1CN([C@H](C)CO)C(=O)CCCn2nncc2CO[C@@H]1CN(C)S(=O)(=O)c1cn(C)cn1 | 270
CC(=O)NC1CCN(C(=O)c2cccc(CC3CCNCC3)c2)CC1 | -5
CCc1nc(SCC(=O)NC(C)CN2CCc3ccccc3C2)n[nH]1 (stereo unspecified) | 12
COCCO[C@H]1CCN(S(=O)(=O)C2CC2)[C@H]1Cc1cnn(C)c1 | -10
O=C(O)CCC(=O)N1CC2CCC(C1)N2C(=O)c1ccco1 | 61
Cc1csc(CN2C[C@H]3COC[C@@]3(CNC(=O)c3ccco3)C2)n1 | -41
COC(=O)c1c(NCc2ccccc2OC)c2cccc(Cl)c2[nH]c1=O | -4
O=C(NC1CCN(Cc2ccccn2)CC1)c1cnc(-c2ccc(Cl)cc2)nc1 | -2
Cc1oc(-c2ccc(OC(C)C)cc2)nc1CSc1nc2c(=O)[nH]cnc2n1-c1ccccc1 | -69
CCc1nc2c(N3C[C@H]4CC=CC[C@H]4C3)ncnc2o1 | -43
O=c1cnn([C@@H]2O[C@H](CO)[C@@H](O)[C@H]2O)c(=O)[nH]1 | 0
Cc1oc(-c2ccccc2Cl)nc1Cn1c(=O)c2cccnc2n(-c2ccccc2)c1=O | 3
Cc1cc(N2CCCN(Cc3cn(C)nc3-c3ccccc3)CC2)ccn1 | -23
CN(C)S(=O)(=O)N1CCCCC1c1ccc(F)cc1 (stereo unspecified) | 13
Cc1nc(N)nc(Cl)c1Cc1ccccc1Cl | -49
Cc1ccc(S(=O)(=O)N(C)C[C@H]2OCCCC[C@@H](C)Oc3ccc(NC(=O)c4ccncc4)cc3C(=O)N([C@@H](C)CO)C[C@H]2C)cc1 | ?
O=C(c1ccccc1)C1CCN(C(=O)CC2COCCN2)CC1 (stereo unspecified) | 1
CN(C)CCO[C@H]1CN(S(=O)(=O)c2cccs2)[C@H]2COC[C@@H]12 | -4
O=C(C[C@@H]1C=C[C@H](NC(=O)CCN2CCCCC2)[C@@H](CO)O1)Nc1nccs1 | 40
Cc1cccc(NC(=O)NCC(c2cccnc2)c2cn(C)c3ccccc23)c1C (stereo unspecified) | i
Cc1ccc(S(=O)(=O)N2CC[C@H]3[C@H](CC2)S(=O)(=O)CCN3CC(C)C)cc1 | 2
CN(C)C(=O)c1cnn(C2CCNC2)c1 (stereo unspecified) | 17
Cc1ccc(NC(=O)Nc2ccc(-c3nc(-c4cccc(Br)c4)co3)cc2)cc1 | 1
S=C(NCCc1c[nH]c2ccccc12)NC1CCCCC1 | 42
CCN(CC)CCCn1nnc2c(=O)oc3ccccc3c21 | 9
CCOc1ccccc1NC(=O)c1c(O)c2cccnc2n(-c2ccc(F)cc2)c1=O | 65
CCc1ccc(NC(=O)N2CCC3(CC2)Nc2ccccc2-n2cccc23)cc1 | i
Cc1cccc(C(=O)CC(c2ccccc2)C2C(=O)c3ccccc3C2=O)c1 (stereo unspecified) | 55
O=c1[nH]c(=O)n([C@H]2CC(O)[C@@H](CO)O2)cc1/C=C/Br (stereo partly specified) | 19
CSCc1ccc(C(=O)N(C)Cc2nc3ccc(C)cc3[nH]2)o1 | -27
Cn1c(COc2ccc(Cl)cc2)nc2ccccc21 | 271
O=C(Nc1cc(C(F)(F)F)ccc1N1CCCC1)c1ccc2c(c1)CCO2 | 29
O=C(Cc1ccccc1)N1CCC2(CC1)CC(N1CCCC1)CO2 (stereo unspecified) | -46
Fc1ccc(CN2CCC(c3nc4ccc(N5CCCC5)cn4n3)CC2)cc1 | -3
COc1ccc(-c2nc(CNS(=O)(=O)c3ccc(C)c(C)c3)c(C)o2)cc1 | 32
Cc1cc(NC(=O)c2ccc3nonc3c2)on1 | -37
COc1cccc(-c2ccc3c(c2)[C@H]2[C@H](CCN2S(=O)(=O)c2ccccc2F)[C@@H](CO)N3)c1 | -64

Further compounds
SMILES | Tgondii IFNg
COc1ccc(CN(C)C[C@H]2OCCCC[C@@H](C)Oc3ccc(NC(=O)C4CCCCC4)cc3C(=O)N([C@H](C)CO)C[C@@H]2C)cc1 | 120
O=C(NCc1cccs1)C1CCCN(C2CCN(Cc3ccncc3)CC2)C1 (stereo unspecified) | 4
Cc1cnc(N2CCc3[nH]nc(C(C)C)c3C2)nc1N(C)C | -24
CCS(=O)(=O)N1CCN(c2nccc(N3CCCC(O)C3)n2)CC1 (stereo unspecified) | 18
c1ccc(OCC23CCCOC2CCN(Cc2ccncc2)C3)nc1 (stereo unspecified) | 102
CCOc1ccc(S(=O)(=O)N2CCN(Cc3nc(-c4ccc(C(=O)NC)cc4)oc3C)CC2)cc1 | 28
O=C(C1CCCCC1)N1[C@@H](CO)[C@@H]2c3ccccc3N(S(=O)(=O)c3ccccc3)C[C@@H]21 | -56
Cc1ccc2nc(C(NC(=O)c3ccncc3)C(C)C)[nH]c2c1 (stereo unspecified) | -25
C[C@@H](NC(=O)C[C@@H]1CC[C@@H]2[C@H](COC[C@@H](O)CN2Cc2ccc(C(F)(F)F)cc2)O1)c1ccccc1 | -22
CCC(=O)NCCc1sc(-c2ccc(Cl)cc2)nc1C | 179
Cc1cc(C(F)(F)F)nc(CCn2ccnc2-c2ccc(-n3ccnc3)cc2)n1 | 2
